# GIRK2 act: opens human GIRK2 potassium channels | P48051 | actives 0.05% (n = 63,000) | HEK293-GIRK2 thallium flux, Thallos fluorescence | calls only for hits at 25 µM;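 active = among the strongest 0.2% of first-round signals and kept after retests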;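 also: first round at about 10 µM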
# Target sequence (P48051 whole entry, looked up): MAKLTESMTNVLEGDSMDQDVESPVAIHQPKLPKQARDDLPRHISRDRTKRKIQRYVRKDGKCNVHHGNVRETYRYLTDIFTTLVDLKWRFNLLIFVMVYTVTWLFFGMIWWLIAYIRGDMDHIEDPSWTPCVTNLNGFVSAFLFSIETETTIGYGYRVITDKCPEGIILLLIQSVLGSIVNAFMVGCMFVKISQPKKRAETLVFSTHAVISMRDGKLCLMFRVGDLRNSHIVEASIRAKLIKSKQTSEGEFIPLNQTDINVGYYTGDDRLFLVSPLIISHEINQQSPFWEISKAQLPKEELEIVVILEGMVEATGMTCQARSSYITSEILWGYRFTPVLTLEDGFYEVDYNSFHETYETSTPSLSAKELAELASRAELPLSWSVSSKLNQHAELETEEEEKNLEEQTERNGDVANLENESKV
# Calls only; i = inactive. Only part of the results is shown (hit frequency here may not be typical).
SMILES,GIRK2 act
O=C(CSCc1ccccc1)N1CCN(Cc2nc3ccccc3[nH]2)CC1,i
CC(C)c1cc(=O)[nH]c(-n2nc(-c3cccs3)cc2NC(=O)c2ccc(C(F)(F)F)cc2)n1,i
Cc1cc(NS(=O)(=O)c2ccc(N/C=C(/C#N)c3nc(-c4ccc(C)c(C)c4)cs3)cc2)no1,i
O=C(NCC1CCN(C2CCCC2)CC1)Nc1ccc2c(c1)OCO2,i
C#CC(C)(CC)OCC(O)CN1CCN(Cc2ccc3c(c2)OCO3)CC1 (centres undefined),i
COc1ccc(Cl)cc1NC(=O)CSc1nccc(N2CCc3ccccc3C2)n1,i
Cc1[nH]c(=O)n(C)c(=O)c1CCC(=O)Nc1cccc(F)c1,i
O=C1NCCc2ccc(NS(=O)(=O)c3ccc(N4CCCCS4(=O)=O)cc3)cc21,i
COc1ccc(S(=O)(=O)NCCC(=O)O)cc1N(C)S(=O)(=O)c1ccc(C)cc1,i
CCn1c(SCC(=O)Nc2cccc(Cl)c2)nnc1-c1c(C)nc2sccn12,i
O=C(NCCn1cnc(-c2ccc(F)cc2)cc1=O)c1cc(-c2ccco2)[nH]n1,i
Cc1ccc(N2CCN(S(=O)(=O)c3cc(C)c(Br)cc3C)CC2)c(C)c1,i
COc1ccccc1NC(=O)N1CCC(c2nnc(-c3ccco3)s2)CC1,i
COc1ccc(N(C)c2nnc(-c3ccc(NC(=O)Cc4cccs4)cc3)s2)cc1,i
CC(=O)N1CCC(C(=O)NC2CC(=O)N(C3CC3)C2)CC1 (centres undefined),i

# An excerpt of these results, with the structure last:
GIRK2 act | Compound
i | CC(C)c1cc(=O)[nH]c(-n2nc(-c3cccs3)cc2NC(=O)c2ccc(C(F)(F)F)cc2)n1
i | O=C(NCCn1cnc(-c2ccc(F)cc2)cc1=O)c1cc(-c2ccco2)[nH]n1
i | Cc1[nH]c(=O)n(C)c(=O)c1CCC(=O)Nc1cccc(F)c1
i | COc1ccc(N(C)c2nnc(-c3ccc(NC(=O)Cc4cccs4)cc3)s2)cc1

# Among those listed so far, two have an aryl thioether with sulfur outside any ring.
SMILES,GIRK2 act
COc1ccc(Cl)cc1NC(=O)CSc1nccc(N2CCc3ccccc3C2)n1,i
CCn1c(SCC(=O)Nc2cccc(Cl)c2)nnc1-c1c(C)nc2sccn12,i

# Additional entries follow:
SMILES,GIRK2 act
O=C(c1ccc(-n2cccc2)cc1)N1CC(c2nc(-c3cccc(C(F)(F)F)c3)no2)C1,i
CCN(CC)S(=O)(=O)c1ccc(NC(=O)c2oc3c(c2C)C(=O)CC(C)(C)C3)cc1,i
COc1ccc(NC(=O)c2cc(-c3ccc(Cl)cc3[N+](=O)[O-])oc2C)cc1,i
CCOc1cc(C(=O)Nc2ccc3c(c2)N(C(C)=O)CCC3)cc(OCC)c1OCC,i
COc1cccc(NC(=O)c2c(O)c3ccccc3n(-c3ccccc3)c2=O)c1,i
CCn1c(-n2nc(C)cc2C)nc2c1c(=O)n(CC(=O)OC)c(=O)n2C,i
COc1ccccc1C1NC(=S)NC(C)=C1C(=O)Nc1ccc(Br)cc1 (centres undefined),i
CSc1cccc(NC(=O)C(=O)NCCN2CCN(c3ccccc3)CC2)c1,i
COc1cccc(-c2cc(C(=O)N3CCN(Cc4nc5ccccc5n4C)CC3)[nH]n2)c1,i
Cc1noc(-c2cccnc2N2CCC(NC(=O)c3cccn3C)CC2)n1,i
CC(=O)Nc1c(-c2ccc3c(c2)OCO3)c(=O)c2ccccc2n1C,i
CSc1ccccc1CN1CCC(CNC(=O)c2c(-c3ccccc3Cl)noc2C)CC1,i
CCCCCCCCCCCCCCCCCC(=O)NCCO,i
Cn1nc(-c2ccccc2)cc1C(=O)N1CC(c2nc(-c3cccc(C(F)(F)F)c3)no2)C1,i
O=C(c1ccc2nsnc2c1)N1CCOC(c2ccccc2)C1 (centres undefined),i
CCn1nccc1C(=O)N1CCn2c1nc1ccccc12,i
Cc1ccc(S(=O)(=O)N2CCC(c3nnc(-c4ccco4)s3)CC2)cc1,i
COc1cc(NC(=O)c2cc(Br)ccc2Cl)ncn1,i
Cc1cc(C(=O)N2CCN(CCNC(=O)c3ccsc3)CC2)c(C)o1,i
C#CCOCC1CCCN(C(=O)COc2ccccc2)C1 (centres undefined),i
CC(=O)Oc1ccc2c(=O)c(C(C)=O)c(C)oc2c1,i
CCn1c(-c2nonc2N)nc2c(C#CC(C)(C)O)nc(OC[C@@H](N)c3ccccc3)cc21,i
C=C1CC(O)C(CCCCCCC(=O)O)[C@H]1CCC(=O)CCCCC (some centres undefined),i
CCS(=O)(=O)N1CCN(CC(=O)c2ccco2)CC1,i
CCOc1cc(NC(=O)CCn2cnc3ccccc3c2=O)ncn1,i
COc1ccc2c(c1)c(CC(=O)NCCc1ccccc1)c(C)n2Cc1ccc(Br)cc1,i
O=C(COc1ccccc1F)N1CCC(CSCc2ccco2)CC1,i
COc1cccc(CNC(=O)COc2cc(C)nc(N3CCCCCC3)n2)c1OC,i
COc1cc(NC(=O)Cn2nc3c4cccc(C)c4ncn3c2=O)cc(OC)c1,i
O=S(=O)(NCc1cc(-c2ccncc2)n(C2CCCC2)n1)c1ccc(F)c(Cl)c1,i
COc1cc2ncnc(SCC(=O)c3ccccn3)c2cc1OC,i
CC(=O)Nc1ccc(C(=O)NCc2cnn3ccccc23)cc1,i
Brc1ccc(-c2csc(Cc3nc(-c4ccccc4)no3)n2)cc1,i
COc1ccccc1NC(=O)COc1cc(C)nc(N2CCCC2)n1,i
COCCN(Cc1ccncc1)S(=O)(=O)c1cccc(Cl)c1C,i
CCCCCC1OC(O)CC1SC[C@H](NC(C)=O)C(=O)O (some centres undefined),i
Cc1cc(NC(=O)Cc2csc(Nc3ncccn3)n2)no1,i
C/C(Cl)=C/Cn1c(SCC(=O)c2ccc(Cl)cc2)nc2c1c(=O)[nH]c(=O)n2C,i
O=C(c1ccco1)N1CCN(CC(O)c2ccco2)CC1 (centres undefined),i
O=C(CCSc1ccccc1)NCC(O)C1CCCCC1 (centres undefined),i
COCCNC(=O)c1c(N)n(/N=C\c2ccc(C(C)C)cc2)c2nc3ccccc3nc12,i
CSc1ccccc1NC(=O)Cn1nc(C)ccc1=O,i
COC(=O)Cn1c(=O)c2c(nc3n2CC(C)CN3c2ccc(C)cc2)n(C)c1=O (centres undefined),i
Brc1ccc(CN2CC(c3nc(-c4cccs4)no3)C2)s1,i
COc1ccccc1Oc1ccc(S(=O)(=O)NCC(=O)O)cc1,i

# 5 entries from above, with bars between the fields.
smiles | GIRK2 act
Cc1ccc(S(=O)(=O)N2CCC(c3nnc(-c4ccco4)s3)CC2)cc1 | i
CCn1c(-n2nc(C)cc2C)nc2c1c(=O)n(CC(=O)OC)c(=O)n2C | i
COc1cccc(CNC(=O)COc2cc(C)nc(N3CCCCCC3)n2)c1OC | i
CSc1ccccc1NC(=O)Cn1nc(C)ccc1=O | i
O=C(CSCc1ccccc1)N1CCN(Cc2nc3ccccc3[nH]2)CC1 | i

# Next part.
SMILES,GIRK2 act
O=C(Nc1nnc(C2CC(=O)N(c3ccccc3)C2)o1)c1ccccn1 (centres undefined),i
COc1ccc(NC(=O)Nc2nc(CCC(=O)N3CCCC3)cs2)cc1,i
O=C(Cn1c2ccccc2c2ncn(Cc3ccccc3)c(=O)c21)NC1CCCC1,i
CCN(c1ccccc1)C1SC(=O)N(CCN2C(=O)S/C(=C/c3ccccc3)C2=O)C1=O (centres undefined),i
CCN1CCCc2cc(CCNC(=O)C(=O)Nc3ccc(C)cc3)ccc21,i
COc1ccc(-c2cc(=O)c3c(OC)c(OC)c(OC)c(OC)c3o2)cc1OC,i
Cc1cc(C)cc(N(Cc2ccccc2Cl)S(=O)(=O)c2cccn3cnnc23)c1,i
COc1ccc(S(=O)(=O)N2CCC(Oc3ccc(C(F)(F)F)cn3)CC2)cc1C,i
CC(Cc1cccs1)NC(=O)NCc1cccc2ccccc12 (centres undefined),i
O=C(Nc1nc2c(s1)CN(C(=O)c1ccccc1C(F)(F)F)CC2)NC1CCCC1,i
CCCCN1C(SCC(=O)Nc2cc(OC)cc(OC)c2)=NS(=O)(=O)c2ccccc21,i
CNC(=O)CSc1nnc(N2CCN(C(=O)c3c(F)cccc3Cl)CC2)s1,i
CNC(=O)/C(C#N)=C1/SC(Cc2ccc(OC)cc2)C(=O)N1c1ccccc1OC (centres undefined),i
O=C(Nc1nccs1)C1CCN(C(=O)c2cnn(-c3ccccc3)n2)CC1,i
O=C(c1cccc(NS(=O)(=O)c2ccccc2F)c1)N1CCCCCC1,i
CCN(CC)C(=O)Oc1ccc2c(c1)O/C(=C\c1ccccc1OC)C2=O,i
O=C(c1cc(-c2ccco2)[nH]n1)N1CCN(c2nc3c(C(F)(F)F)cccc3s2)CC1,i
Cc1cc(CNC(=O)Cc2cccc3ccccc23)c(C)o1,i
COc1ccc(-c2nc(SCC(=O)NCc3ccco3)c(-c3ccccc3)[nH]2)cc1,i
CSc1ccc(CNC(=O)Cc2nnc(-c3cccc(Br)c3)o2)cc1,i
Cc1cc(=O)n2c(-c3ccc(NC(=O)C(C)Oc4ccc5c(c4)OCO5)cc3)csc2n1 (centres undefined),i
O=C(NC1CCCC1)c1sccc1S(=O)(=O)N1CCN(c2ccccc2)CC1,i
COc1ccccc1-c1noc(CCn2nc(-c3ccc4c(c3)OCO4)ccc2=O)n1,i
COc1ccc2sc(N3CC(C(=O)NCc4ccccn4)C3)nc2c1,i
Cn1c(N2CCCCC2)nc2c1c(=O)n(Cc1ccc(Cl)cc1)c(=O)n2C,i
CCOC(=O)Cn1c(=O)c2c(nc3n2CCCN3c2ccc(OC)cc2OC)n(C)c1=O,i
COc1ccccc1OCC#CCNC(=O)c1ccc(Br)o1,i
Cc1cccnc1NC(=O)C(C)Cn1nc(-c2ccco2)ccc1=O (centres undefined),i
CCOC(=O)N1CCN(C(=O)c2nnn(-c3ccccc3OC)c2-c2ccccn2)CC1,i
O=c1cc(CN2CCC3(CC2)OCCO3)c2cc(Cl)ccc2o1,i
COc1ccccc1CCNC(=O)CCc1csc(NC(=O)NC2CCCCC2)n1,i
O=C(NCCN1CCOCC1)c1cc2cc(Cl)ccc2o1,i
CCOc1ccc(CN2CCN(c3cc(C)nc4c5c(C)cc(C)nc5nn34)CC2)cc1,i
CC(C)(C)OCC(O)CN1CCC(Cc2ccccc2)CC1 (centres undefined),i
COc1ccc(NC(=O)CN2C(=O)NC(c3ccc(C)cc3)C3=C2COC3=O)c(OC)c1 (centres undefined),i
CC(C)c1ccc(OCC(=O)NCCCS(=O)(=O)N2CCc3ccccc3C2)cc1,i
Cc1nc(NC(=O)c2nnn(-c3ccc(OC(F)(F)F)cc3)n2)sc1C(=O)N(C)C,i
Cc1nc(C)c(CNC(=O)C2CCN(c3ccc(-c4ccc(Cl)cc4)nn3)CC2)s1,i
COc1ccc(NC(=O)Cc2ccc(F)cc2)cc1N1CCCC1=O,i
COC(=O)c1ccc(NC(=O)C(=O)NCC(C)(O)c2ccc3c(c2)OCO3)cc1 (centres undefined),i
COc1ccc(OC(=O)c2cccc([N+](=O)[O-])c2)c(C(=O)/C=C/c2cccs2)c1,i
COc1cc(OC)cc(C(=O)NCCS(=O)(=O)N2CCN(Cc3ccccc3)CC2)c1,i
CCc1cccc(OCC(O)Cn2c(NCCCN3CCOCC3)nc3c2c(=O)[nH]c(=O)n3C)c1 (centres undefined),i
O=C(Nc1nnc(-c2ccco2)o1)C1CCN(S(=O)(=O)c2ccc(F)cc2)CC1,i
O=C(/C=C/c1ccco1)N1CCN(c2cc(N3CCCCC3)ncn2)CC1,i
COc1cccc(NC(=O)Nc2ccc3c(c2)CCCN3C(=O)c2cccs2)c1OC,i
O=C(COc1ccc(Cl)cc1Cl)NCC1(O)CCOc2ccccc21 (centres undefined),i
Cc1ccc(CNC(=O)CSC2=NS(=O)(=O)c3ccccc3N2)cc1,i
COc1cc(C(=O)Nc2cc(C)nn2-c2nc(-c3ccc(Cl)cc3)cs2)cc(OC)c1OC,i
Cc1cccc(NC(=O)CSC2=NNC3C4CC(c5ccccc5)NN4C=CN23)c1C (centres undefined),i
C=CCn1c(=O)c2ccc(C(=O)NCC(C)C)cc2n2c(=O)n(CC(=O)Nc3cccc(F)c3)nc12,i
O=C(Cn1nc2c(SC3CCCCC3)nccn2c1=O)Nc1cccc(Cl)c1,i
O=C1CN(C(=O)c2cnn3c2OCCC3)CCN1,i
Cc1ccc(C(=O)N2CCC(Oc3ncccc3Cl)CC2)cc1C,i
O=C(c1cccs1)N1CCN(Cc2nc(C3CC3)cs2)CC1,i
COc1ccc(NC(=O)Nc2ccc(N3CCCC3=O)c(C)c2)cc1,i
CN1CC(C(=O)NCC#CCOc2ccc3c(c2)OCO3)CC1=O (centres undefined),i
O=C(c1ccc(=O)[nH]n1)N1CC(Oc2nc3c(C(F)(F)F)cccc3s2)C1,i
COc1cccc(CN2C(=O)N(c3ccc(C)cc3)c3ncccc3S2(=O)=O)c1,i
COc1ccc(Cl)cc1NC(=O)N1CCCC(c2nnc(-c3ccccc3F)s2)C1 (centres undefined),i

# New compounds follow
SMILES,GIRK2 act
Cc1noc(CNC(=O)C2CCN(C(=O)CSc3nc4ccccc4s3)CC2)n1,i
CS(=O)(=O)c1cccc2sc(N3CCN(C(=O)c4ccc(Br)s4)CC3)nc12,i
Cc1cc(C(=O)NCC2(O)CCOc3ccccc32)c(C)o1 (centres undefined),i
O=C(Nc1nc(CCC(=O)N2CCN(c3ccccc3Cl)CC2)cs1)c1ccco1,i
N#C/C(=C\c1ccc(-c2ccccc2F)o1)c1nc2ccccc2c(=O)[nH]1,i
COC(=O)c1ccccc1NC(=O)Cn1nc2nc(N3CCCC(C)C3)ccn2c1=O (centres undefined),i
O=c1n(CCNS(=O)(=O)Cc2ccccc2)nc(C2CC2)n1-c1ccccc1,i
Cc1ccc(NC(=O)C(=O)NCCN2CCN(c3ccccc3F)CC2)cc1C,i
CCOC(=O)CCC(=O)NCC1(c2ccccc2)CCOCC1,i

# Assay outcomes: PubChem, Vanderbilt University
